Vaccinia inh: blocks a specific stage of Vaccinia orthopoxvirus infection, primary screen, cell-based, single point. Vaccinia-infected cells, mCherry/Venus stage reporter fluorescence; hits give low values; some inactives read as strong as hits. activity change (mCherry), % (no concentration beside the values). 0.01% of 89,000 active;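 active = mCherry past -33% and 40 or more points under the early reporter, replicates agreeing; inconclusive = past -33% without that gap or agreement; tested in A549 cells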;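 also: scaled between vehicle wells and reference inhibitor wells; 23 nL library stock went into each well; one replicate is shown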
Vaccinia inh Venus: further read-out of Vaccinia inh, marked with its call; activity change (Venus), %; measured here: Venus reporter, other viral stage;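 negative = less Venus signal; first of two replicates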
Numbers without * were called inactive; ? = inconclusive; / = not tested or not shown.

Second line of a record – Vaccinia inh | Vaccinia inh Venus
CCC(=O)N(C)C[C@@H]1Oc2cc(-c3ccc(C)cc3)ccc2S(=O)(=O)N([C@@H](C)CO)C[C@H]1C
    -10.6 | -18.0
C[C@H](CO)N1C[C@H](C)[C@@H](CN(C)CC2CC2)OCCCC[C@H](C)Oc2ccc(NC(=O)Nc3ccccc3)cc2C1=O
    14.3 | 0.6
COc1ccc(S(=O)(=O)Nc2ccc3c(c2)C(=O)N([C@@H](C)CO)C[C@H](C)[C@@H](CN(C)S(=O)(=O)c2ccccc2)OCCCC[C@H](C)O3)cc1
    -30.9 | -28.6
COCC#Cc1ccc([C@@H]2[C@H]3CN(C(=O)NC4CCCC4)CCCCN3[C@H]2CO)cc1
    -7.2 | -9.6
CCN1[C@@H]2c3ccc(-c4ccccc4)c(=O)n3C[C@H]1[C@H](CO)[C@H]2C(=O)NC1CCC1
    3.8 | -0.6
O=C(c1ccccc1F)N1CC(=O)N2[C@H](C1)[C@H](c1ccc(C#Cc3ccc(F)cc3)cc1)[C@@H]2CO
    ? | /
C[C@@H]1CN([C@H](C)CO)S(=O)(=O)c2ccc(C#CCN(C)C)cc2O[C@H]1CN(C)CC1CCCC1
    -11.4 | -4.8
COc1ccc2c3c([nH]c2c1)[C@@H](CO)N(C(=O)CN1CCOCC1)CC31CCN(Cc2ccccc2)CC1
    -14.6 | -13.4
CC(C)NC(=O)Nc1ccc2c(c1)C(=O)N(C)[C@H]1CC[C@H](CC(=O)Nc3ccccc3)O[C@H]1CO2
    10.2 | 12.9
COCC#Cc1ccc2c(c1)O[C@H](CN(C)C)[C@@H](C)CN([C@H](C)CO)S2(=O)=O
    3.3 | -0.3
C[C@@H]1CN([C@@H](C)CO)C(=O)c2cc(N(C)C)ccc2O[C@@H](C)CCCCO[C@H]1CN(C)C(=O)CCC(F)(F)F
    -6.3 | 7.2
CO[C@H]1CN(C)C(=O)c2ccc(NC(=O)c3ccccc3)cc2OC[C@H](C)NC[C@@H]1C
    7.7 | 15.4
C[C@@H]1CN([C@@H](C)CO)C(=O)c2cccc(NC(=O)c3nc4ccccc4s3)c2O[C@H]1CN(C)Cc1ccc(C(F)(F)F)cc1
    -28.7 | -23.5
C[C@H]1CN([C@@H](C)CO)C(=O)c2cccc(NS(=O)(=O)c3cccs3)c2O[C@H]1CN(C)CC1CC1
    7.4 | 9.1
CCCNC(=O)Nc1ccc2c(c1)OC[C@@H](C)N(C(=O)C1CC1)C[C@@H](C)[C@@H](OC)CN(C)C2=O
    19.4 | 21.3
C[C@@H]1CCCCO[C@H](CN(C)C(=O)c2ccncc2)[C@@H](C)CN([C@@H](C)CO)C(=O)c2cc(NC(=O)C3CCCCC3)ccc2O1
    13.1 | 9.8
CN1C(=O)c2cc(NS(C)(=O)=O)ccc2OC[C@H]2O[C@@H](CC(=O)O)CC[C@H]21
    -18.4 | -23.6
O=C(c1cnccn1)N1CC(=O)N2[C@H](CO)[C@@H](c3ccc(-c4cccc(F)c4)cc3)[C@@H]2C1
    -20.5 | -10.4
O=C(C[C@H]1CC[C@H]2[C@@H](COC[C@@H](O)CN2S(=O)(=O)c2cccc(Cl)c2)O1)NCc1ccc2c(c1)OCO2
    -7.7 | -4.3
C[C@@H]1CCCCO[C@H](CN(C)Cc2ccc(C(=O)O)cc2)[C@H](C)CN([C@@H](C)CO)C(=O)c2cc(NC(=O)CCC(F)(F)F)ccc2O1
    6.4 | 6.8

Next section, overlapping the part above by three compounds.
Second line of a record – Vaccinia inh | Vaccinia inh Venus
O=C(c1cnccn1)N1CC(=O)N2[C@H](CO)[C@@H](c3ccc(-c4cccc(F)c4)cc3)[C@@H]2C1
    -20.5 | -10.4
O=C(C[C@H]1CC[C@H]2[C@@H](COC[C@@H](O)CN2S(=O)(=O)c2cccc(Cl)c2)O1)NCc1ccc2c(c1)OCO2
    -7.7 | -4.3
C[C@@H]1CCCCO[C@H](CN(C)Cc2ccc(C(=O)O)cc2)[C@H](C)CN([C@@H](C)CO)C(=O)c2cc(NC(=O)CCC(F)(F)F)ccc2O1
    6.4 | 6.8
N#Cc1cccc(-c2ccc3c(c2)[C@H]2[C@H](CCN2S(=O)(=O)c2ccccc2F)[C@H](CO)N3)c1
    -5.3 | -4.5
C[C@H](CO)N1C[C@H](C)[C@@H](CN(C)Cc2ccc(Cl)c(Cl)c2)Oc2ccc(NC(=O)C3CC3)cc2C1=O
    -26.2 | -13.8
C[C@H](CO)N1C[C@H](C)[C@@H](CN(C)Cc2ccc(C(=O)O)cc2)OCCCC[C@H](C)Oc2ccc(NC(=O)c3ccccc3)cc2C1=O
    37.3 | 25.1
OC[C@@H]1[C@@H](c2ccccc2)C2(CN(Cc3cccnc3)C2)N1Cc1cccnc1
    -2.2 | -2.0
CO[C@H]1CN(C)C(=O)c2cc(NC(=O)c3ccc(-c4ccccc4)cc3)ccc2OC[C@H](C)NC[C@H]1C
    ? | /
CCCC#Cc1ccc2c(c1)O[C@H](CN(C)C(=O)C1CC1)[C@H](C)CN([C@H](C)CO)S2(=O)=O
    -23.2 | -20.7
CCC(=O)Nc1ccc2c(c1)OC[C@H](C)N(Cc1ccccc1OC)C[C@@H](C)[C@H](OC)CN(C)C2=O
    -8.3 | -7.7
O=C(Nc1ccc(F)cc1)N1CC(=O)N2[C@H](CO)[C@@H](c3ccc(C#Cc4cccnc4)cc3)[C@@H]2C1
    -19.5 | -11.7
COC(=O)[C@H]1[C@H](CO)[C@H]2Cn3c(ccc(-c4cccc(OC)c4)c3=O)[C@@H]1N2CC1CC1
    16.0 | 6.8
CCN1[C@@H]2c3ccc(C4=CCCCC4)c(=O)n3C[C@@H]2[C@@H](CO)[C@@H]1C(=O)NCc1ccccn1
    12.2 | 21.3
C[C@@H]1CN([C@@H](C)CO)C(=O)c2cc(NC(=O)c3ccncc3)ccc2O[C@H]1CN(C)C(=O)Nc1ccc(C(F)(F)F)cc1
    22.4 | 18.5
Cc1ccc(S(=O)(=O)N(C)C[C@H]2OCCCC[C@@H](C)Oc3ccc(NC(=O)Nc4ccc(F)cc4)cc3C(=O)N([C@@H](C)CO)C[C@H]2C)cc1
    -18.9 | 3.2
Cc1noc(C)c1NC(=O)N[C@@H]1CC[C@@H](CC(=O)N2CCN(C)CC2)O[C@@H]1CO
    17.3 | 9.4
COc1ccc(S(=O)(=O)N(C)C[C@@H]2Oc3ccc(N(C)C)cc3CC(=O)N([C@@H](C)CO)C[C@@H]2C)cc1
    9.6 | 7.5
C[C@@H]1CN([C@@H](C)CO)C(=O)c2cccc(NC(=O)NC3CCCCC3)c2O[C@@H]1CN(C)S(C)(=O)=O
    2.1 | 4.7
CN1[C@@H]2c3ccc(-c4ccccc4)c(=O)n3C[C@H]1[C@H](CO)[C@H]2C(=O)NCC1CCCCC1
    8.7 | 2.8
CN1c2ccc(C#Cc3ccccc3F)cc2[C@H]2[C@H](CCN2C(=O)c2cnccn2)[C@H]1CO
    2.6 | 3.7
CO[C@H]1CN(C)C(=O)c2cc(NC(=O)c3ccc(F)cc3)ccc2OC[C@H](C)N(C(=O)c2ccc(F)cc2)C[C@H]1C
    -0.7 | -2.2
CCCN(C)C[C@@H]1Oc2ncc(-c3ccccc3F)cc2C(=O)N([C@H](C)CO)C[C@H]1C
    4.2 | -2.0
CCC(=O)NC[C@@H]1N[C@@H](CO)[C@H]1c1ccc(-c2cccc(C#N)c2)cc1
    -3.1 | 9.9

In a second layout: two of the compounds above.
SMILES,Vaccinia inh,Vaccinia inh Venus
CN1c2ccc(C#Cc3ccccc3F)cc2[C@H]2[C@H](CCN2C(=O)c2cnccn2)[C@H]1CO,2.6,3.7
CO[C@H]1CN(C)C(=O)c2cc(NC(=O)c3ccc(F)cc3)ccc2OC[C@H](C)N(C(=O)c2ccc(F)cc2)C[C@H]1C,-0.7,-2.2

(more compounds)
Second line of a record – Vaccinia inh | Vaccinia inh Venus
C[C@H](CO)N1C[C@H](C)[C@@H](CN(C)C(=O)Nc2ccc(C(F)(F)F)cc2)Oc2ccc(NS(=O)(=O)c3ccc(F)cc3)cc2CC1=O
    -29.1 | -16.0
C[C@H]1CN([C@@H](C)CO)C(=O)c2ccccc2-c2ccccc2CO[C@H]1CN(C)Cc1cccc(C(F)(F)F)c1
    ? | /
C[C@H](CO)N1C[C@H](C)[C@H](CN(C)C(=O)C2CCCCC2)Oc2ncc(-c3ccccc3)cc2C1=O
    -0.1 | -13.6
Cc1cc(C(=O)Nc2cccc3c2O[C@@H](CN(C)Cc2ccc(Oc4ccccc4)cc2)[C@H](C)CN([C@@H](C)CO)C3=O)n(C)n1
    ? | /
C[C@H](CO)N1C[C@H](C)[C@@H](CN(C)S(=O)(=O)c2ccccc2)Oc2ccc(NC(=O)CCCCCC(=O)Nc3ccccc3N)cc2CC1=O
    -8.1 | -8.4
Cc1ccccc1S(=O)(=O)N1[C@H](C#N)[C@H](c2ccc(C#CC3CCCC3)cc2)[C@@H]1CO
    8.5 | 11.3
Cc1ccccc1S(=O)(=O)NCC[C@@H]1CC[C@@H](NC(=O)C2CC2)[C@H](CO)O1
    12.6 | 10.1
CCCNC(=O)C[C@H]1CC[C@H]2[C@@H](COc3ccc(NC(=O)C4CCOCC4)cc3C(=O)N2C)O1
    0.7 | 2.3
C[C@@H]1CN([C@H](C)CO)C(=O)c2cc(NS(=O)(=O)c3ccc(Cl)cc3)ccc2O[C@@H]1CN(C)C(=O)Nc1ccccc1
    23.5 | 11.6
CC(C)CC#Cc1cnc2c(c1)C(=O)N([C@@H](C)CO)C[C@H](C)[C@@H](CN(C)C(=O)CCN1CCCCC1)O2
    -23.0 | -14.8
C[C@@H]1CN([C@H](C)CO)C(=O)c2cc(NC(=O)NC3CCCCC3)ccc2O[C@H]1CN(C)C(=O)Nc1ccccc1
    1.4 | 5.2
COC(=O)C[C@@H]1CC[C@@H]2[C@H](COc3ccc(NC(=O)Nc4ccccc4C)cc3C(=O)N2C)O1
    11.4 | 9.4
CC(=O)Nc1cccc(NC(=O)c2ccccc2Cl)c1
    4.4 | 5.1
CO[C@H]1CN(C)C(=O)c2ccc(NC(C)=O)cc2OC[C@H](C)N(C(=O)c2ccncc2)C[C@@H]1C
    2.6 | 9.6
C[C@@H]1CN([C@H](C)CO)C(=O)c2cc(C3=CCCC3)cnc2O[C@H]1CN(C)S(C)(=O)=O
    15.5 | 1.4
O=C(C[C@@H]1CC[C@H]2NC[C@@H](O)COC[C@@H]2O1)Nc1ccc(-c2ccccc2)cc1
    -12.6 | -0.7
CN(C)CC(=O)N1[C@H](C#N)[C@@H](c2ccc(C#CC3CCCC3)cc2)[C@@H]1CO
    -18.3 | -12.1
CC(C)NC(=O)N1[C@H](C#N)[C@H](c2ccccc2-c2ccc(F)cc2)[C@@H]1CO
    5.2 | 1.1
N#C[C@H]1[C@H](c2ccccc2)[C@@H](CO)N1S(=O)(=O)c1ccc(F)cc1
    18.7 | 3.7
COCC(=O)Nc1ccc2c(c1)C(=O)N(C)[C@H]1CC[C@@H](CC(=O)NCc3ccccc3)O[C@H]1CO2
    3.0 | 1.5
Cc1cc(C(=O)Nc2cccc3c2O[C@@H](CN(C)S(C)(=O)=O)[C@@H](C)CN([C@@H](C)CO)C3=O)n(C)n1
    6.8 | 4.6
C/C=C/c1ccc([C@H]2[C@@H](CO)N(C(=O)CC)[C@@H]2CNC(=O)C2CC2)cc1
    6.2 | 10.6
C[C@@H]1CN([C@@H](C)CO)S(=O)(=O)c2ccc(-c3cncnc3)cc2O[C@@H]1CN(C)C(=O)c1ccc2c(c1)OCO2
    27.9 | 11.6
C[C@@H]1CCCCO[C@@H](CN(C)C(=O)Nc2cccc3ccccc23)[C@H](C)CN([C@@H](C)CO)C(=O)c2cc(NS(=O)(=O)c3ccc(F)cc3)ccc2O1
    7.3 | 6.2
C[C@@H]1CCCCO[C@H](CN(C)C(=O)c2ccccc2)[C@@H](C)CN([C@@H](C)CO)C(=O)c2cc(NC(=O)Nc3ccc4c(c3)OCO4)ccc2O1
    20.9 | 12.9
Cc1ccc(S(=O)(=O)N2C[C@@H](O)COC[C@@H]3O[C@@H](CC(=O)N[C@@H]4CCN(Cc5ccccc5)C4)CC[C@H]32)cc1
    ? | /
CCCC#Cc1cnc2c(c1)C(=O)N([C@H](C)CO)C[C@H](C)[C@@H](CN(C)C(=O)C1CC1)O2
    8.8 | 0.0
CCS(=O)(=O)Nc1ccc2c(c1)C(=O)N(C)C[C@H](OC)[C@H](C)CN(C)[C@@H](C)CO2
    9.3 | 3.0
O=C(N[C@@H]1CC[C@H](CCNS(=O)(=O)c2ccc(Cl)cc2)O[C@H]1CO)c1cnccn1
    1.7 | 8.1
COc1cccc(-c2ccc([C@H]3[C@H]4CN(C(=O)C5CCCCC5)CC(=O)N4[C@H]3CO)cc2)c1
    -19.6 | -13.4
Cc1noc(C)c1S(=O)(=O)Nc1ccc2c(c1)CC(=O)N([C@@H](C)CO)C[C@@H](C)[C@H](CN(C)C(=O)Nc1ccccc1)O2
    -2.5 | 3.3
Cc1noc(C)c1NC(=O)Nc1cccc2c1O[C@@H](CN(C)Cc1ccc(Oc3ccccc3)cc1)[C@@H](C)CN([C@H](C)CO)C2=O
    -16.2 | -13.1
C[C@H]1CN([C@@H](C)CO)S(=O)(=O)c2ccc(C#CC3CC3)cc2O[C@@H]1CN(C)C(=O)c1cnccn1
    15.6 | -0.4
CC(C)NC(=O)N[C@@H]1C=C[C@H](CC(=O)NCCN2CCCC2)O[C@H]1CO
    -0.3 | 10.2

As entered above:
Result of C[C@H]1CN([C@@H](C)CO)C(=O)c2cccc(NS(=O)(=O)c3cccs3)c2O[C@H]1CN(C)CC1CC1 under Vaccinia inh: 7.4
Result of CCS(=O)(=O)Nc1ccc2c(c1)C(=O)N(C)C[C@H](OC)[C@H](C)CN(C)[C@@H](C)CO2 under Vaccinia inh Venus: 3.0

These rows are one share of the data; rates above refer to the full screens.
